PV pol inh: poliovirus RdRp elongation inhibitors, primary screen, biochemical, fluorescence polarization, total intensity; Genome polyprotein (Poliovirus type 1 (strain Mahoney)), P03300; poliovirus polymerase elongation; active compounds read low; % elongation, % (compound at 16.7 µg/mL); 150,000 tested, 0.66% active; AID 588519, 2011; in the data active means % elongation below about 90%; further: some results filed as inactive read as strong as hits
Target sequence (P03300 1749-2209 limits assumed): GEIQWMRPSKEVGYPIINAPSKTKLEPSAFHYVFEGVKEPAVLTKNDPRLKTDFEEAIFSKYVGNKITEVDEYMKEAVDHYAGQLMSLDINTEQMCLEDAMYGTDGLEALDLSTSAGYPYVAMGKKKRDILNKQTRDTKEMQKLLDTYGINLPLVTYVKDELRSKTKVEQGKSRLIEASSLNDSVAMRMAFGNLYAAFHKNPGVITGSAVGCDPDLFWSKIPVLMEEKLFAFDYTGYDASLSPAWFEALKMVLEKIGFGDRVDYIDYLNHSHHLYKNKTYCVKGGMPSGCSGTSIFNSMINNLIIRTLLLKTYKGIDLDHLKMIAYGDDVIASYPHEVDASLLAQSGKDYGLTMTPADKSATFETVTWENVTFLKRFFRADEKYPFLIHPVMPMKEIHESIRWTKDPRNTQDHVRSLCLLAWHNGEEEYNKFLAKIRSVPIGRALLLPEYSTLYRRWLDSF
PV pol inh intensity: second read-out of PV pol inh, no call of its own (marks repeat the call); % elongation; measured here: total intensity read-out; formula for this scale not given here;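 total fluorescence in place of polarization; lower means less elongation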
* = called active by the depositor. A portion of the library. The share of hits here may be higher or lower than overall.

SMILES	PV pol inh	PV pol inh intensity
CCOc1ccc(/C=C/c2nc(C#N)c(NC(C)c3ccccc3)o2)cc1 (stereo not given)	112.0	115.0
Cc1ccc(NC(=O)Cn2cnc3c(oc4ccccc43)c2=O)cc1	107.0	99.0
COc1cccc(N2CC(NC(=O)c3cc(Cl)ccc3OC)CC2=O)c1 (stereo not given)	104.0	111.0
CCOC(=O)Cc1ccc(NC(=O)Nc2cc3c(cc2N2CCCCC2)n(C)c(=O)n3C)cc1	112.0	112.0
CCOc1ccc(NC(=O)CCCc2nnc3n(C)c(=O)c4sccc4n23)cc1	120.0	123.0
Cc1ccc(O)c(-c2ccnc3cc(-c4ccc(Cl)cc4)nn23)c1	106.0	106.0
Cc1cc(-c2nc3ncccc3o2)ccc1NC(=O)c1ccc(Br)cc1	103.0	97.0
COC(=O)c1ccc(Cl)cc1NC(=O)NCc1c(-n2cccc2)sc2c1CCCC2	104.0	106.0
COc1ccc(CNC(=O)CCC2N=C3c4ccccc4N=C(SCC(=O)NCCc4ccc(OC)c(OC)c4)N3C2=O)cc1 (stereo not given)	101.0	108.0
CCOc1cc(-c2nnc(SCC(=O)Nc3ccc(F)c(F)c3)nc2-c2ccc(OC)c(OCC)c2)ccc1OC	115.0	122.0
Cc1ccccc1NC(=O)CSc1nc2ccccc2c2nc(CCn3cncc3C)nn12	110.0	113.0
COc1cccc(CNC(=O)c2ccc3c(c2)c(C)c(C)n3Cc2ccccc2)c1OC	110.0	114.0
Cc1ccc(C)c(N2CCN(C(=O)c3cccn3-c3nnc(N4CCCCC4)s3)CC2)c1	105.0	111.0
COc1cccc(-c2nc(SCC(=O)NCC3CCCO3)c(-c3ccc(F)cc3)[nH]2)c1 (stereo not given)	115.0	109.0
COc1ccc(CNC(=O)C2CCN(S(=O)(=O)c3c(C)noc3/C=C/c3ccccc3F)CC2)cc1	104.0	110.0
COc1ccc(C(=O)CC2(O)C(=O)N(Cc3cccc(C(F)(F)F)c3)c3ccccc32)cc1 (stereo not given)	104.0	109.0
Cc1ccc(Cl)cc1N1CCN(C(=O)c2ccc(C)c(-n3c(C)nc4cccnc43)c2)CC1	103.0	96.0
CCOc1ccc(NC(=O)Cn2c(=O)n(Cc3nc(-c4ccccc4)no3)c(=O)c3ccccc32)cc1	101.0	100.0
CCCOc1ccc(C2c3c(-c4ccccc4O)n[nH]c3C(=O)N2CCc2ccccc2)cc1OCC (stereo not given)	111.0	110.0
Cc1ccc(NC(=O)c2ccc(Cl)cc2Cl)c(C(=O)c2ccccc2)c1	99.0	104.0
Cc1ccc(Cn2c(=O)n(CC3CCC(C(=O)N4CCC(C)CC4)CC3)c(=O)c3sccc32)cc1 (stereo not given)	102.0	111.0
CCCC(O)c1nc2ccccc2n1Cc1ccccc1OC (stereo not given)	101.0	100.0
Cc1ccccc1CNC(=O)c1cc2cccc3c2n1CC(C)S3 (stereo not given)	109.0	105.0
O=C(Nc1ccc(Br)cc1)C1CCCN1S(=O)(=O)c1ccc(F)cc1 (stereo not given)	114.0	115.0
CSc1ccc(CCNC(=O)c2ccc(-c3nc(COc4ccc(C)cc4)c(C)o3)cc2)cc1	114.0	114.0

Brought forward from above: 3 compounds, then new ones.
SMILES	PV pol inh	PV pol inh intensity
Cc1ccccc1CNC(=O)c1cc2cccc3c2n1CC(C)S3 (stereo not given)	109.0	105.0
O=C(Nc1ccc(Br)cc1)C1CCCN1S(=O)(=O)c1ccc(F)cc1 (stereo not given)	114.0	115.0
CSc1ccc(CCNC(=O)c2ccc(-c3nc(COc4ccc(C)cc4)c(C)o3)cc2)cc1	114.0	114.0
O=C(NCC(c1ccc2c(c1)OCO2)N1CCN(c2ccccc2)CC1)c1ccccc1 (stereo not given)	108.0	111.0
Cc1ccc(NC(=O)CSc2nnc3scc(-c4ccc(Cl)cc4)n23)cc1	105.0	109.0
Cc1cc(C)c(NC(=O)Cn2cc(S(=O)(=O)Cc3ccccc3F)c3ccccc32)c(C)c1	104.0	105.0
CCOc1ccc(-c2nc(CSCC(=O)NCCc3ccccc3)c(C)o2)cc1	102.0	108.0
Cc1ccc(NC(=O)NCCOCCn2c(=O)oc3ccccc32)c(C)c1	101.0	105.0
Cc1cc(C)c2c(-n3cccc3)c(C(=O)NCCCN3CCCCC3C)sc2n1 (stereo not given)	109.0	112.0
COc1cc(C2c3c(-c4cc(C)ccc4O)n[nH]c3C(=O)N2Cc2ccco2)cc(OC)c1OC (stereo not given)	105.0	106.0
COc1ccc(NC(=O)CN2CCN(CC(=O)Nc3ccccc3F)CC2)c(OC)c1	108.0	111.0
Cc1c(-c2nsc(NC(=O)c3ccc(Cl)cc3)n2)nnn1-c1ccc(C(C)C)cc1	104.0	107.0
COc1ccc(C)cc1NC(=O)c1oc2ccc(S(=O)(=O)N3CCC4(CC3)OCCO4)cc2c1C	108.0	107.0
Cc1ccc(NC(=O)C2CCCN(S(=O)(=O)c3cccc4nsnc34)C2)c(C)c1 (stereo not given)	109.0	114.0
Cc1ccc(NC(=O)CC(C)S(=O)(=O)c2ccc3c(c2)NC(=O)CO3)cc1Cl (stereo not given)	106.0	105.0
COc1ccc(Nc2c(-c3cccc(O)c3)nc3cnccn23)cc1	107.0	108.0
COc1cc(C2c3c(-c4c(C)cc(C)cc4O)n[nH]c3C(=O)N2CCCOC(C)C)cc(OC)c1OC (stereo not given)	109.0	111.0
CCOC(=O)c1noc2nc(C)n(Cc3cccc([N+](=O)[O-])c3)c(=O)c12	109.0	90.0
CCOc1cc(C2Sc3ccccc3NC3=C2C(=O)c2ccccc23)ccc1O (stereo not given)	106.0	108.0
Cc1cc(C(=O)NCCc2ccc(Cl)cc2)c2c(C)nn(-c3ccccc3)c2n1	104.0	113.0
Clc1ccc(CNc2nc3ccccc3c3nc(-c4cccnc4)nn23)cc1	107.0	109.0
COc1ccc(NS(=O)(=O)c2ccc3c(c2)C(C(C)C)C(=O)N3)cc1 (stereo not given)	99.0	103.0
CCCOc1ccc(CNC(=O)C2CCN(c3nc4ccccc4nc3C(F)(F)F)CC2)cc1	105.0	112.0
CCCN(CCC)C(=O)c1c[nH]c2ccc(S(=O)(=O)Nc3cc(C)cc(C)c3)cc2c1=O	103.0	102.0
Cc1c(Cl)cccc1NC(=O)C(C)n1nnc2sc3c(c2c1=O)CCCC3 (stereo not given)	109.0	111.0
O=C(NCC12CC3CC(CC(C3)C1)C2)c1cc2nc(-c3ccc(Cl)cc3)cc(C(F)(F)F)n2n1	104.0	107.0
COc1ccc(C2=Nc3ccc(C)cc3NC(c3ccc(Cl)cc3)=N2)cc1	102.0	105.0
O=C(NCc1ccccc1)C(=O)NCC(c1cccnc1)N1CCN(c2ccccc2)CC1 (stereo not given)	109.0	113.0

Ordered by length of the SMILES (descending): some entries from above.
SMILES	PV pol inh	PV pol inh intensity
Cc1c(-c2nsc(NC(=O)c3ccc(Cl)cc3)n2)nnn1-c1ccc(C(C)C)cc1	104.0	107.0
O=C(NCC(c1ccc2c(c1)OCO2)N1CCN(c2ccccc2)CC1)c1ccccc1 (stereo not given)	108.0	111.0
Cc1cc(C(=O)NCCc2ccc(Cl)cc2)c2c(C)nn(-c3ccccc3)c2n1	104.0	113.0
COc1ccc(C2=Nc3ccc(C)cc3NC(c3ccc(Cl)cc3)=N2)cc1	102.0	105.0

(cont.)
SMILES	PV pol inh	PV pol inh intensity
COC(=O)c1ccc(-n2nnc(-c3nc(-c4ccccc4Cl)no3)c2C)cc1	107.0	106.0
Cc1ccc(Cn2c(=O)n(CCCCC(=O)NCCc3ccc(Cl)cc3)c(=O)c3ccccc32)cc1	110.0	112.0
CCCCOC(=O)/C(C#N)=C/c1ccc(-c2ccc(Br)cc2)o1	102.0	108.0
COc1cc(CN2CCc3nc(N4CCN(c5ccccn5)CC4)ncc3C2)cc(OC)c1OC	102.0	100.0
Cc1cc(C)c2c(=O)cc(C(=O)Nc3c(C)n(C)n(-c4ccccc4)c3=O)oc2c1	111.0	110.0
Cn1c(C(=O)NCc2ccc(F)cc2)cc2c(=O)n(C)c3ccccc3c21	106.0	105.0
Cc1cc(NS(=O)(=O)c2ccc(NC(=O)c3ccccc3C)cc2)nc(C)n1	104.0	109.0
CCc1cccc(NC(=O)CSc2ncc3c(n2)-c2ccccc2N(Cc2ccccc2C)S3(=O)=O)c1	116.0	106.0
Cn1c(SCc2ccccc2Cl)nc(=O)c2c1NC(=O)CC2c1cc(F)ccc1F (stereo not given)	102.0	99.0
CCOc1ccc(Nc2oc(/C=C/c3ccc(OC)c(OC)c3)nc2C#N)cc1	107.0	111.0
COc1ccc(CCNc2ncnc3c2cnn3-c2ccc(C)cc2)cc1	108.0	114.0
CCCS(=O)(=O)c1c(Nc2ccccc2C)sc(C(=O)c2ccccc2)c1N	104.0	108.0
CCCCNC(=O)c1cc(-c2cccnc2)nc2ccc(S(=O)(=O)NCCCC)cc12	110.0	113.0
CC1=C(C(=O)Nc2ccc(C)cc2C)C(c2cc(Br)ccc2F)n2ncc(C(=O)Nc3ccc(C)cc3)c2N1 (stereo not given)	110.0	109.0
CCOc1ccc(-n2c(-c3ccc(Br)cc3)cc3c2CC(C)(C)CC3=O)cc1	110.0	108.0
COCCn1cc(C(=O)NCCCOC(C)C)c2c3ccccc3n(C)c2c1=O	106.0	106.0
CCN(CC)C(=O)Cn1c(=O)n(CCCCCC(=O)NCc2ccccc2)c(=O)c2sccc21	99.0	102.0
Cc1cccc(N2CCN(Cc3cc(=O)oc4cc(C)ccc34)CC2C)c1 (stereo not given)	110.0	107.0
O=C(NCc1cccs1)c1ccc2c(c1)sc1nc(-c3ccccc3)cn12	100.0	95.0
Fc1ccc2c(c1)NC(c1ccncc1)=NC(c1cccs1)=N2	106.0	104.0
Cc1cc(C)cc(NC(=O)CSc2ccc(-c3cccs3)nn2)c1	99.0	103.0
COc1ccc2c(c1)c(=O)c(C(=O)c1ccc(F)cc1)cn2CC(=O)Nc1ccc2c(c1)OCO2	105.0	91.0
COc1cccc(NC(=O)c2cc3c(=O)n(Cc4cccnc4)ccc3nc2C)c1	107.0	112.0
CCN(CC)C(=O)c1ccc2c(c1)N(Cc1ccccc1F)C(=O)c1ccccc1S2=O (stereo not given)	108.0	105.0
COc1ccc(N(C(=O)c2ccccc2F)S(=O)(=O)c2ccc3c(c2)n(C)c(=O)n3C)cc1	106.0	110.0
SMILES	PV pol inh	PV pol inh intensity
Cc1cccc(C)c1OCC(=O)NCC1(N2CCOCC2)CCCCC1	102.0	106.0
Cc1ccc(CN2CCc3nc(SCC(=O)Nc4cccc(C)c4C)[nH]c(=O)c3C2)cc1	105.0	107.0
CCOCCn1cnc2sc(C(=O)Nc3ccccc3C(=O)OC)c(C)c2c1=O	106.0	99.0
CCOc1ccc(Nc2nc3ccccc3c3nnc(CC)n23)cc1	104.0	105.0
O=C(CSc1nc(=O)n(Cc2ccncc2)c2c1CCC2)Nc1ccccc1	103.0	107.0
O=C1c2[nH]nc(-c3ccccc3O)c2C(c2ccc(Cl)cc2)N1Cc1ccco1 (stereo not given)	109.0	112.0
Cc1[nH]c2ccccc2c1SCCNC(=O)c1ccccc1F	105.0	107.0
COC(=O)c1cc(Cl)ccc1NC(=O)Cn1c(C)cc(C)c(C#N)c1=O	109.0	111.0
CCS(=O)(=O)c1ncc(N(Cc2ccccc2)Cc2ccco2)c(C(=O)Nc2cccc(Cl)c2C)n1	111.0	115.0
O=C(c1ccc(Cl)cc1)n1nc(-c2cccnc2)nc1NCc1ccc(F)cc1	102.0	100.0
COc1ccc(-c2cn3nc(N4CCCC(C(=O)Nc5ccccc5OC)C4)sc3n2)cc1 (stereo not given)	117.0	114.0
O=C(CCSCc1ccccc1Cl)N1CCN(c2ccc(F)cc2)CC1	105.0	107.0
CCOc1ccc(N(C(=O)c2ccc(OC)cc2)S(=O)(=O)c2ccc3c(c2)n(C)c(=O)n3C)cc1	108.0	112.0
COc1ccc(C2c3[nH]c4ccccc4c3CCN2C(=O)CCC2CCCC2)cc1 (stereo not given)	108.0	112.0
COC(=O)c1ccccc1NC(=O)C1CCCN(c2nnc(C)c3c(C)n(-c4ccccc4)nc23)C1 (stereo not given)	111.0	109.0
CC(C)Oc1ccc(CNC(=O)Cn2ncn3nc(-c4cccs4)cc3c2=O)cc1	103.0	109.0
COc1cc(C2C(=O)N(C3CCCCCC3)CC(=O)N2CCC2=CCCCC2)ccc1OC(C)C (stereo not given)	116.0	111.0
CCOC(=O)c1nc(Nc2ccc(Cl)cc2)c2c(C)noc2n1	107.0	108.0
COc1ccc(CCNC(=O)Cc2c(C)c3c(cc(C)c4c(C)coc43)oc2=O)cc1OC	101.0	103.0
Cc1cccc(Cn2c(C)c(C)c3cc(C(=O)NCc4ccc(C)o4)ccc32)c1	112.0	113.0
CCOc1ccccc1C(=O)NCC(c1ccc(N(C)C)cc1)N1CCCC1 (stereo not given)	108.0	110.0
COc1ccc(CCNc2nc(-c3ccc(Cl)cc3)cc(C(F)(F)F)n2)cc1OC	102.0	105.0
CCOC(=O)c1[nH]c(C)c(CCC(=O)NCc2cccc(Cl)c2)c1C	104.0	105.0
Cc1cc(-c2ccccc2)n2nc(-c3ccc(Cl)cc3)cc2n1	99.0	102.0
O=C(CN1C(=O)CCc2cc(Br)ccc21)Nc1ccc(OC(F)(F)F)cc1	106.0	111.0

Looked up above:
PV pol inh result of CCS(=O)(=O)c1ncc(N(Cc2ccccc2)Cc2ccco2)c(C(=O)Nc2cccc(Cl)c2C)n1 : 111.0
PV pol inh result of Cc1cccc(C)c1OCC(=O)NCC1(N2CCOCC2)CCCCC1 : 102.0

Remaining list, next part:
SMILES	PV pol inh	PV pol inh intensity
Cc1nc(SCc2cc(=O)c3cccc(F)c3[nH]2)n[nH]1	109.0	111.0
COc1ccc(C2C(=O)N(C3CCCCC3)CC(=O)N2CCC2=CCCCC2)cc1 (stereo not given)	107.0	105.0
CCCCN(C)CCCNC(=O)c1cn(CC)c2ccc(S(=O)(=O)N3CCc4ccccc4C3)cc2c1=O	104.0	105.0
COc1cccc(NC(=O)Nc2ccc3nc(N4CCN(C)CC4)cc(C)c3c2)c1	100.0	94.0
COc1ccc(CCNC(=O)c2ccc3c(c2)CCN3S(C)(=O)=O)cc1	108.0	115.0
COc1cc2c(=O)n(Cc3ccco3)c(=O)n(CC(=O)Nc3ccc(F)cc3)c2cc1OC	106.0	106.0
CCc1ccccc1NC(=O)Cn1nc(C(F)(F)F)c2c1CCCC2	107.0	111.0

Source: PubChem (ICCB-Longwood Screening Facility, Harvard Medical School)
